# Screening results from PubChem.
# BmaI1 enzyme: BmaI1 acyl-homoserine lactone synthase inhibition – biochemical, fluorescence intensity, with counterscreen (AID 720554); actives 0.4% (n = 12,000); inhibition, %; BmaI1 enzyme assay, fluorescence intensity; hits give high values; test concentration not given here; a few actives read low; strong numbers were not always called active;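 active means both replicates within 2 robust z-scores of the inhibited control and a quiet counterscreen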;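 further: 0% = uninhibited enzyme and 100% = inhibited control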
# BmaI1 enzyme counterscreen: also measured in BmaI1 enzyme; calls as there; inhibition, %; measured here: counterscreen; design of the counterscreen not given here;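 first of two replicates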
# An asterisk follows results filed as active. An excerpt (hit frequency here may not be typical).
SMILES,BmaI1 enzyme,BmaI1 enzyme counterscreen
Cc1ccc(NC(=O)N(C)CCOc2ccccc2)cc1,10,15
CS(=O)(=O)c1ccc(NC(=O)Cc2n[nH]c(=O)c3ccccc23)cc1,-1,-4
Cc1nc(Cc2nnc(SCC(=O)Nc3ccc(S(=O)(=O)N4CCCC4)cc3)o2)cs1,11,-6
CN(CC(=O)NN1C(=O)NC2(CCCCC2)C1=O)Cc1ccc(Cl)cc1,0,-6
CC(=O)NCCN1C(=O)S/C(=C\c2cccs2)C1=O,5,-10
Cc1nn(Cc2ccccc2)c(C)c1C(=O)OCC(=O)NCc1ccco1,6,-4
N#C/C(=C\c1ccc(-c2ccc(S(=O)(=O)N3CCOCC3)cc2)o1)C(=O)NC1CC1,10,10
O=C(/C=C/c1ccco1)OCCN1C(=O)c2ccccc2C1=O,1,-8
CO[C@H]1/C=C/O[C@@]2(C)Oc3c(C)c(O)c4c(O)c(c(C=NN5CCN(C6CCCC6)CC5)c(O)c4c3C2=O)NC(=O)/C(C)=C\C=C\[C@H](C)[C@H](O)[C@@H](C)[C@@H](O)[C@@H](C)[C@H](OC(C)=O)[C@@H]1C,18,18
CCOC(=O)c1sc(N)c(C(=O)OCC)c1COC(=O)c1cnc(C)cn1,14,4
O=S(=O)(NC1CC1)c1ccc(F)cc1,-4,-6
O=C(OCC(=O)N1CCCC1)c1cc(Cl)ccc1Cl,13,7
Cn1c(=NC(=O)C2=NN(C3CCS(=O)(=O)C3)C(=O)CC2)sc2ccccc21 (configuration not stated),13,11
Cc1nnc(NC(=O)c2nc3nccc(C)n3n2)o1,13,2
CN1/C(=C2\C=NN(C)P2(=O)N2CCCCCC2)C(C)(C)c2ccccc21 (configuration not stated),20,10
Cc1ccc(CN2CC(C(=O)NCC(=O)OCc3ccccc3)CC2=O)cc1 (configuration not stated),8,10
Cc1ccc2c(Cn3nnc4ccccc4c3=O)cc(=O)oc2c1,21,14
CN1CCN(C(=O)O[C@H]2c3nccnc3C(=O)N2c2ccc(Cl)cn2)CC1,-14,-8
C=C(C)c1cccc(C(C)(C)NC(=O)NC2CC2)c1,2,3
O=C(CSCc1cc(=O)n2c3c(sc2n1)CCCC3)NCc1ccc2c(c1)OCO2,8,0
NCCCOCC1CCCO1 (configuration not stated),10,-2
CCCCn1nc(C)c(/C=N/NC(=O)CN2CCCc3ccccc32)c1Cl,22,9
N#CCCSc1nc2ccccc2n1CCc1ccccc1,5,-2
Cc1cc(OCCN2CCCC2)cc(C)c1Cl,16,6
CCn1c(SCC(=O)NC(C)(C#N)C(C)C)nnc1-c1ccccc1 (configuration not stated),10,10
C(=N\NC1=Nc2cccc3cccc1c23)/c1ccccn1,16,10
O=c1[nH]nc(SCc2csc(-c3ccccc3)n2)n1Cc1ccccc1,10,5
N/C(=N\O)c1ccsc1,68,22
Clc1ccc(-c2nn(-c3ccccc3)cc2C=NCc2ccco2)cc1,9,8
Nc1nc(SCc2cc(=O)oc3ccc4ccccc4c23)n[nH]1,30,20
O=c1cnc2ccccc2n1Cc1ccc(Br)cc1,12,10
CC(C)(CN1CCCCCC1)NS(=O)(=O)c1ccc(Cl)cc1,-9,-9
CS(=O)(=O)CCC1NC(=O)N(CC(=O)c2ccccc2)C1=O (configuration not stated),16,13
Cc1nnc(SCC(=O)c2cc(C)n(CCC(C)C)c2C)n(N)c1=O,6,2
CCOc1ccc(OCCNC(=S)NC)cc1,2,6
N#Cc1ccccc1NC(=O)CSc1ncnc2ccccc12,10,0
Fc1ccc2nc(NCc3ccccc3)sc2c1,0,3
CC(SCC(=O)Nc1nc(-c2ccccc2)cs1)C(=O)O (configuration not stated),-6,-10
Cc1cc(=O)n2c(C)csc2c1C#N,2,-6
COc1ccccc1C(=O)Nc1ccc(O)cc1,68,51

# No new results follow: an excerpt of the list.
SMILES,BmaI1 enzyme,BmaI1 enzyme counterscreen
CN1/C(=C2\C=NN(C)P2(=O)N2CCCCCC2)C(C)(C)c2ccccc21 (configuration not stated),20,10
Cc1ccc(CN2CC(C(=O)NCC(=O)OCc3ccccc3)CC2=O)cc1 (configuration not stated),8,10
Cc1ccc2c(Cn3nnc4ccccc4c3=O)cc(=O)oc2c1,21,14
CN1CCN(C(=O)O[C@H]2c3nccnc3C(=O)N2c2ccc(Cl)cn2)CC1,-14,-8
C=C(C)c1cccc(C(C)(C)NC(=O)NC2CC2)c1,2,3
O=C(CSCc1cc(=O)n2c3c(sc2n1)CCCC3)NCc1ccc2c(c1)OCO2,8,0
NCCCOCC1CCCO1 (configuration not stated),10,-2
CCCCn1nc(C)c(/C=N/NC(=O)CN2CCCc3ccccc32)c1Cl,22,9
N#CCCSc1nc2ccccc2n1CCc1ccccc1,5,-2
Cc1cc(OCCN2CCCC2)cc(C)c1Cl,16,6
CCn1c(SCC(=O)NC(C)(C#N)C(C)C)nnc1-c1ccccc1 (configuration not stated),10,10
C(=N\NC1=Nc2cccc3cccc1c23)/c1ccccn1,16,10
O=c1[nH]nc(SCc2csc(-c3ccccc3)n2)n1Cc1ccccc1,10,5
N/C(=N\O)c1ccsc1,68,22
Clc1ccc(-c2nn(-c3ccccc3)cc2C=NCc2ccco2)cc1,9,8
Nc1nc(SCc2cc(=O)oc3ccc4ccccc4c23)n[nH]1,30,20
O=c1cnc2ccccc2n1Cc1ccc(Br)cc1,12,10
CC(C)(CN1CCCCCC1)NS(=O)(=O)c1ccc(Cl)cc1,-9,-9
CS(=O)(=O)CCC1NC(=O)N(CC(=O)c2ccccc2)C1=O (configuration not stated),16,13
Cc1nnc(SCC(=O)c2cc(C)n(CCC(C)C)c2C)n(N)c1=O,6,2
CCOc1ccc(OCCNC(=S)NC)cc1,2,6
N#Cc1ccccc1NC(=O)CSc1ncnc2ccccc12,10,0
Fc1ccc2nc(NCc3ccccc3)sc2c1,0,3
CC(SCC(=O)Nc1nc(-c2ccccc2)cs1)C(=O)O (configuration not stated),-6,-10
Cc1cc(=O)n2c(C)csc2c1C#N,2,-6
COc1ccccc1C(=O)Nc1ccc(O)cc1,68,51

# The list continues.
SMILES,BmaI1 enzyme,BmaI1 enzyme counterscreen
CCn1nnc2cc(C(=O)Nc3cccc(Cl)c3F)ccc21,8,4
Cn1ccsc1=NC(=O)c1cccnc1,6,4
Cc1cc(C)nc(SC2=C(N3CCC(C)CC3)C(=O)N(Cc3ccccc3)C2=O)n1,14,4
O=C(CSc1ncnc2ccccc12)NCCC1=CCCCC1,12,2
O=C(COC(=O)C1CCN(C(=O)c2ccc(Cl)cc2)CC1)NCc1ccco1,7,0
Cc1ccc(CC(C#N)Sc2nnc(Cc3ccccc3)o2)cc1 (configuration not stated),8,-2
COc1ccc(/C=C2\N=C(SCC(=O)NCc3ccco3)N(c3cc(C)cc(C)c3)C2=O)cc1,8,-2
O=C(O)Cc1n[nH]c(=S)n1Cc1ccccc1,31,28
O=C(O)CCC(=O)Nc1cccc(-c2nn(-c3ccccc3)cc2C(=O)O)c1,12,3
COc1ccc(N(C)S(=O)(=O)c2cccc(C(=O)Nc3ccc(N4CCN(C)CC4)cc3C)c2)cc1,9,12
N#CCc1nc(C23CC4CC(CC(C4)C2)C3)cs1,12,8
N#Cc1oc2ccccc2c1NC(=O)CSc1nnc(-c2ccccc2)n1Cc1ccco1,21,8
CN(C)C(CNC(=O)c1cc2ccccc2cc1O)c1ccccc1 (configuration not stated),43,60
CC(C)(CN1CCN(Cc2ccccc2)CC1)NS(=O)(=O)c1ccccc1,10,9
COc1ccc(C(=O)N(c2ccccn2)c2ccccn2)cc1OC,12,14
COc1ccccc1C(CNc1nc(C(F)(F)F)nc2ccccc12)N(C)C (configuration not stated),14,2
CN(C(=O)COC(=O)c1ccccc1C(=O)N1CCN(c2ccccc2)CC1)c1ccccc1,16,10
COc1ccccc1NS(=O)(=O)c1ccc(C)c(C(=O)N2CCCC2)c1,7,1
CCOc1ccc(S(=O)(=O)N2CCN(CN3C(=O)CC4(CCCC4)C3=O)CC2)cc1,6,2
N#Cc1ccc(CSC2=Nc3ccccc3C3CC=NN23)cc1 (configuration not stated),-3,5

# Profiles, looked up by structure. Screens in order: BmaI1 enzyme, BmaI1 enzyme counterscreen
# O=C(O)Cc1n[nH]c(=S)n1Cc1ccccc1 as listed: 31, 28
# O=C(CSc1ncnc2ccccc12)NCCC1=CCCCC1 as listed: 12, 2

# Following part
SMILES,BmaI1 enzyme,BmaI1 enzyme counterscreen
Cn1c(=NC(=O)CC2OC(=O)c3ccccc32)sc2ccccc21 (configuration not stated),6,6
CC(C)n1nccc1NC(=O)c1cccnc1Sc1ccccc1,2,-6
O=C1CC(C(=O)N(Cc2ccccc2)c2ccccc2)CN1Cc1ccco1 (configuration not stated),-4,-3
Cc1ccc(COC(=O)c2cccn2C)cc1,20,13
COc1cc2c(cc1OC)CN(Cc1cc(=O)n3c(-c4ccccc4)csc3n1)CC2,17,12
Cc1nc(=O)c(-c2ccccc2)c(C)n1Cc1ccccc1,6,6
CCOc1ccc(-n2c(O)c(C=Nc3cc(C)on3)c3ccccc3c2=O)cc1,8,3
COc1ccc(Cl)cc1-c1csc(CC#N)n1,16,17
O=C(OCc1ccccc1)[C@@H]1CCCN1C(=O)c1cccs1,-2,-4
O=C(OCc1cc(=O)n2c(n1)sc1ccccc12)C1CCN(S(=O)(=O)c2ccccc2)CC1,8,6
Cc1ccc(S(=O)(=O)NC(=O)N2CC3(C)CC2CC(C)(C)C3)cc1 (configuration not stated),14,8
Nc1nccnc1C(=O)OCc1cc(=O)oc2ccc3ccccc3c12,4,2
N=C1N=C2N=CC=CN2Cc2ccccc21,2,9
CCCc1cc(=O)[nH]c(SCc2cc(=O)oc3cc(C)ccc23)n1,12,8
CCCCCn1c(SC(C)C(N)=O)nc2ccccc21 (configuration not stated),-8,-7
CC(=O)OCC(=O)Nc1nc2c(C)cc(C)cc2s1,20,18
CC(=O)Nc1nc(CN2CCN(Cc3nc4ccccc4s3)CC2)cs1,-8,-10
OC(CNc1ncnc2sccc12)c1ccccc1 (configuration not stated),18,4
Nc1nc(C(F)(F)F)nn1C(=O)c1ccc(Br)cc1,16,14
Cc1noc(C)c1S(=O)(=O)N1CCCC1c1ccc2c(c1)OCCCO2 (configuration not stated),12,9
CCCNC(=O)Nc1ccccc1N1CCCCC1,-40,-34
O=C(Cc1ccc(S(=O)(=O)N2CCCC2)s1)Nc1ccc(-c2nnc3n2CCCCC3)cc1,11,0
S=C(N=P(N1CCOCC1)(N1CCOCC1)C12CC3CC(CC(C3)C1)C2)N1CCCC1,4,6
CN(CCc1ccccn1)c1ncnc2c1oc1ccccc12,10,0
O=C(COC(=O)c1ccccc1-n1cnnn1)c1ccccc1,21,20
Cc1sc2nc(SCC(=O)c3ccc(O)cc3O)[nH]c(=O)c2c1C,50,38
Nc1cc(Cl)ccc1Cl,5,9
Cc1c(C(=O)C(C#N)c2nc3ccccc3[nH]2)oc2c(Cl)cccc12 (configuration not stated),14,2
O=C(CN1C(=O)C2CC=CCC2C1=O)NC1=NCCS1 (configuration not stated),8,4
O=C1c2ccccc2C(=O)N1CCOc1ncnc2c(Cl)cc(Cl)cc12,12,4
CCN(CC(=O)Nc1ccc(NC(C)=O)cc1)C(=O)Cc1ccccc1F,2,2
C=CCN1c2ccccc2NC(=O)C1CC(=O)Nc1ccc(C)cc1 (configuration not stated),-161,-56
COC(=O)c1ccc(/C=N/OCC(=O)Nc2ccc3c(c2)OCCO3)cc1,8,12
O=c1[nH]c2ccc(S(=O)(=O)N3CCN(c4cccc(C(F)(F)F)c4)CC3)cc2[nH]1,18,10
CCOc1ccc(NC(=O)c2ccccc2NC(=O)CN2CCOCC2)cc1,8,8
Cc1ccc2nc(COC(=O)CNC(=O)c3ccc(Br)o3)cc(=O)n2c1,7,6
Cn1c(C(C#N)C(=O)c2n[nH]c(=O)c3ccccc23)nc2ccccc21 (configuration not stated),26,-8
Cn1c(SCC(=O)NC2C3CC4CC(C3)CC2C4)nnc1-c1cccnc1 (configuration not stated),10,4
COc1ccccc1NC(=O)Nc1ccc(N2CCOCC2)cc1,15,-8
Cc1cc(C#N)c(C)n1-c1ccc(Cl)cc1C(=O)c1ccccc1Cl,14,20
CC1Cc2ccccc2N1Cc1nc2ccccc2c(=O)[nH]1 (configuration not stated),46,4
Cc1cc(C)c(C(=O)COC(=O)c2ccc(O)cc2)c(C)c1,14,8
Cc1cc(OCC(=O)N(C2CC2)C2CCS(=O)(=O)C2)ccc1Cl (configuration not stated),13,7
O=C(Cc1ccccc1)NCc1ccc2c(c1)OCO2,30,6
C=CCn1c(C)cc(C(=O)COC(=O)C2CCN(C(=O)Nc3ccccc3)CC2)c1C,-1,2
CCOC(=O)C1=C(CSCC(=O)OCc2ccc(C#N)cc2)NC(=O)NC1C (configuration not stated),23,13
CCOc1ccc(CN(C)C(=O)C2=NNC(=O)CC2)cc1,13,0
CC(C)[C@]12O[C@H]1[C@@H]1O[C@]13[C@]1(O[C@H]1C[C@H]1C4=C(CC[C@@]13C)C(=O)OC4)[C@@H]2O,4,0
COc1ccc(C(=O)OCC(=O)N(C2CCCCC2)C2CCS(=O)(=O)C2)c(O)c1 (configuration not stated),14,3
CCOC(=O)Cc1csc(SCN2C(=O)c3ccccc3C2=O)n1,11,3
CN(C(=O)COC(=O)Cc1c[nH]c2ccccc12)C1CCCCC1,16,10
CCC(CO)n1c(SCC(=O)Nc2ccc(C)c(C)c2)nc2cc(OC)c(OC)cc2c1=O (configuration not stated),18,8
CN1CCN(Cn2c(=S)oc3cc(S(=O)(=O)Nc4ccccc4Cl)ccc32)CC1,29,8
CC1CCCC(NC(=O)COC(=O)c2cccc(S(=O)(=O)N(C)C)c2)C1C (configuration not stated),33,2
O=C1C2CC=CCC2C(=O)N1CN1CCN(Cc2ccccc2)CC1 (configuration not stated),6,2
c1coc(CN=C2NC(=NCc3ccco3)c3ccccc32)c1,10,5
C=C1N(C)c2ccc(NC(=O)c3ccccc3)cc2C1(C)C,6,-20
NC(=O)CSc1nnc(COc2ccccc2Cl)n1C1CC1,3,-2
CC(C)(C)P(=Nc1ccc(S(N)(=O)=O)cc1)(N1CCOCC1)N1CCOCC1,32,17
